Hsc70 – Hsc70 inhibitors, probe displacement, primary screen, biochemical, fluorescence polarization (AID 568); Heat shock cognate 71 kDa protein (Homo sapiens); Hsc70 fluorescence polarization, probe displacement; higher % means a stronger effect; strong numbers were not always called active; one-dose displacement, % at 20 µM; IC50 in µM for titrated hits; 83,000 tested, under 10 active;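 active = displacement above 50% without optical interference and an IC50 on retest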;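 also: ATPase domain with a fluorescein-tagged ATP probe; 0% = vehicle and 100% = excess ADP; read after one hour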
MT1-MMP promoter – inhibitors of MT1-MMP promoter transcription, cell-based, luciferase reporter, luminescence (AID 618); calls from a first round at 10 µM; hits with a dose series show EC50 in µM; MT1-MMP promoter luciferase reporter cells, luminescence; 0.62% of 87,000 active;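 active = over half of the reporter light lost at 10 µM or EC50 under 50 µM; inactive = the rest and hits that failed the dose series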;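 also: actives suppress MT1-MMP promoter-driven transcription so potencies describe inhibitors; HT1080 fibrosarcoma cells; overnight exposure; toxic or luciferase-blocking compounds were not removed from the actives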
WNV NS2B-NS3 inh – inhibitors of WNV NS2B-NS3 protease, primary screen, biochemical, fluorogenic substrate; 0.18% of 65,000 active; z-score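 (tested at a level between 10 and 100 µM)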; fluorogenic substrate Ex360/Em465; hits give low values; Genome polyprotein (West Nile virus), P06935;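 active = z-score at -3 or under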;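 also: score is relative to mean and spread of the compound wells of a plate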
Target sequence (P06935 1371-1501 limits assumed): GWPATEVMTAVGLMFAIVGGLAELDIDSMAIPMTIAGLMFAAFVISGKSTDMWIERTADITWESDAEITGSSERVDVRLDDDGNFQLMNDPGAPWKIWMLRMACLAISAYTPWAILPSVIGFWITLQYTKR
Target sequence (P06935 1502-1679 limits assumed): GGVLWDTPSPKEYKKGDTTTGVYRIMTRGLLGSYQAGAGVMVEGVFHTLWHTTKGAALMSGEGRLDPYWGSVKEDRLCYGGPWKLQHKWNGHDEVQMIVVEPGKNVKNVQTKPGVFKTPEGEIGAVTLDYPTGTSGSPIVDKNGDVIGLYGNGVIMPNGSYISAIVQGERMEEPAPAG
The depositor's hits bear a star; i = inactive; . = no result given.

structure	MT1-MMP promoter	WNV NS2B-NS3 inh	Hsc70
CC(Sc1nnc(C(F)(F)F)n1C)C(=O)NC(N)=O (stereo unspecified)	i	.	-3.1%
Cn1nnc(NC(=O)c2ccc3ccccc3c2)n1	i	.	-4.4%
O=C(Nc1ccc2c(c1)OCO2)c1cnn2cccnc12	i	0.01	11%
CS(=O)(=O)Nc1ccc(C(=O)NCCc2ccccc2)cc1	i	-1.4	0.1%
COc1ccc(S(=O)(=O)Nc2cccc(SC)c2)cc1OC	i	-0.28	-0.5%
CCN(CC)C(=O)C1CC(=O)N(c2ccc(F)c(Cl)c2)C1 (stereo unspecified)	i	0.73	-4.4%
COc1nc(OCC#N)nc(N(C)C)n1	i	.	0.9%
O=C(O)CCCC(=O)Nc1nc(-c2ccccc2)cs1	i	0.01	1.0%
CCOC(=O)C1=C(C)NC2=C(C(=O)CC(C)(C)C2)C1c1cccc(C)n1 (stereo unspecified)	i	-0.71	-1.1%
Cc1cc(NC(=O)CSc2cn(CCNC(=O)c3ccc(F)cc3)c3ccccc23)no1	i	-0.99	7.3%
CNC(=O)COc1ncnc2sc(C)c(C)c12	i	.	-6.3%
OC(C#Cc1ccccn1)c1cccs1 (stereo unspecified)	i	-1.1	18%
CC1CCCN(C(=O)c2cc3c(-c4ccc(Cl)cc4)nn(C)c3s2)C1 (stereo unspecified)	i	-0.64	-4.1%
O=C(OCC(=O)N1CCN(C(=O)c2ccco2)CC1)c1sc2ccccc2c1Cl	i	2.3	-0.5%
COc1ccc(NC(=O)C(CCS(C)(=O)=O)NC(C)=O)cc1 (stereo unspecified)	i	0.09	-3.3%
Cc1ccccc1Oc1ccc(-c2nc(N)nc(N)n2)cc1	i	.	0.7%
N#Cc1c(N)nc(SCc2ccccc2)c(C#N)c1-c1ccco1	i	1.1	-23%
O=C(COc1ccccc1)Nn1cnc2ccccc21	i	-0.93	-2.9%
COCCCNC(=O)CCc1nc(-c2ccccc2)no1	i	0.27	-6.6%
Cn1c(=O)c2c(nc(CN3CCN(Cc4ccccc4)CC3)n2CCN2CCOCC2)n(C)c1=O	i	-0.01	-3.2%
CCC1Oc2ccccc2N(CC(=O)NCCCN2CCCCC2C)C1=O (stereo unspecified)	i	-0.45	-7.1%
O=C(O)CCC(=O)Nc1ccc(C(=O)N2CCCCC2)cc1	i	.	-0.7%
CC(C)N(C(=O)C(=O)c1cccn1-c1ccccc1C#N)C(C)C	i	.	1.3%
O=C(COC(=O)CNC(=O)c1ccco1)Nc1ccc(Cl)cn1	i	.	-1.4%
O=C(O)C1C2C=CC3(CN(C4CCCC4)C(=O)C13)O2 (stereo unspecified)	i	0.39	-0.6%

Fetched one by one from the entries so far, two records:
structure	MT1-MMP promoter	WNV NS2B-NS3 inh	Hsc70
Cc1cc(NC(=O)CSc2cn(CCNC(=O)c3ccc(F)cc3)c3ccccc23)no1	i	-0.99	7.3%
O=C(O)CCC(=O)Nc1ccc(C(=O)N2CCCCC2)cc1	i	.	-0.7%

Later entries
structure	MT1-MMP promoter	WNV NS2B-NS3 inh	Hsc70
CCc1nnc(NC(=O)c2cc(S(=O)(=O)N3CCN(c4ccccc4)CC3)ccc2Cl)s1	i	.	-3.1%
O=c1nc(-c2ccccc2)cn[nH]1	i	0.21	3.1%
O=C(c1ccc(Cl)cc1)C1C2C(=O)N(c3ccccc3)C(=O)C2C2CCCN21 (stereo unspecified)	i	-0.62	59%
Oc1ccc2oc3c(c2c1)CCCC3	i	.	0.7%
CC(=O)OC(C(=O)N1CCN(c2ccccc2F)CC1)c1ccccc1 (stereo unspecified)	i	.	3.2%
O=C(O)CCSc1nnc(-c2ccc3c(c2)OCO3)o1	30µM*	-0.81	4.2%
CCN=C1SC(CC(=O)Nc2ccccc2)C(=O)N1CC (stereo unspecified)	i	0.21	1.6%
CC1(C)CC(=O)C=C(NNC(=O)C2CCCCC2)C1	i	.	-5.6%
CCn1cc(C(=O)O)c(=O)c2ccc(C)nc21	i	-0.18	6.8%
COC(=O)CNC(=O)C1CCCN1C(=O)CNC(=O)OC(C)(C)C (stereo unspecified)	i	0.65	-2.2%
Cc1ccsc1-c1nc(CSCC(=O)NCCN2CCCC2)c(C)o1	i	-0.0021	-1.5%
COc1ccc(N2CCN(C(c3ccccc3OC)c3nnnn3Cc3ccco3)CC2)cc1 (stereo unspecified)	i	-0.67	-2.7%
O=C1CC(N2CCN(c3ccc(O)cc3)CC2)C(=O)N1Cc1cccs1 (stereo unspecified)	i	-0.55	0.6%
CC(C)NC(=O)C1CCCN(S(=O)(=O)c2cccs2)C1 (stereo unspecified)	i	-0.09	-4.2%
Cn1cccc1Cc1nnc(SCC(N)=O)n1-c1ccc(F)cc1	i	0.25	4.8%
CC1CCN(S(=O)(=O)c2ccc(NC(=O)Cn3nnc(-c4ccccc4)n3)cc2)CC1	i	-0.86	-2.1%
Cc1ccc(NC(=O)CS(=O)CC(=O)Nc2ccc3c(c2)OCO3)cc1Cl (stereo unspecified)	i	-0.67	-2.7%
CN1CCN(S(=O)(=O)c2ccc(Sc3nc4ccccc4[nH]3)c3nsnc23)CC1	i	-0.88	-1.6%
C=CCn1c(COc2ccc(CC)cc2)nnc1SCC(=O)N(C)C1CCS(=O)(=O)C1 (stereo unspecified)	i	-0.12	-1.5%
CCOC(=O)C1C(=O)C=C(c2cccc(NS(C)(=O)=O)c2)CC1c1ccco1 (stereo unspecified)	i	.	-1.0%
CC(=O)Oc1ccc(C(c2ccc(OC(C)=O)cc2)c2ccccn2)cc1	i	-0.21	-5.7%
COc1ccc(Oc2ncnc3c2oc2ccc(Br)cc23)cc1	i	-0.38	4.7%
COC(=O)c1ccc(OCC(O)CN(CCO)CCO)cc1 (stereo unspecified)	i	0.82	1.2%
Cc1nc2c(c(C)nn2-c2ccccc2)c(C)c1Cl	i	-0.52	3.5%
Cc1c(C(=O)NCc2ccc3c(c2)OCO3)oc2ccc(S(=O)(=O)N3CCCC3)cc12	i	2.4	0.0%
Cc1cc(C)nc(N2CCC(C(=O)Nc3ccc(Oc4ccccc4)cc3)CC2)n1	i	-0.82	2.7%
CCCCOc1ccccc1NC(=O)c1ccc(=O)[nH]c1	i	-1.2	5.0%
S=c1nccc(-c2cc(Cl)sc2Cl)[nH]1	i	.	2.1%
CCCNc1nc2c(c(=O)n(C)c(=O)n2C)n1Cc1ccc(F)cc1	i	0.24	-1.3%
COc1ccc(-c2nnc(Nc3nc4c(OC)cccc4s3)o2)c(OC)c1	i	-0.53	-11%
CN1/C(=N\O)c2cccc3cccc1c23	i	0.92	5.0%
O=C(CSc1nnc(NC(=O)C2CCC2)s1)NC1CC1	i	-1	-8.1%
ClC(Br)=C(n1cnc2ccccc21)n1cnc2ccccc21	i	-0.63	-2.1%
COc1ccc(CCNS(=O)(=O)c2ccc(C3CNC(=O)C3)cc2)cc1OC (stereo unspecified)	i	-0.83	-2.6%
COc1ccc(CNC(=O)C2CCCN2S(=O)(=O)c2ccc(C)cc2)cc1 (stereo unspecified)	i	-0.95	-3.6%
Cc1ccc(N2CC(C(=O)NCc3cccnc3)CC2=O)cc1 (stereo unspecified)	i	-0.93	7.4%
CC1CN(C(=O)c2cc3ccccc3oc2=O)CC(C)O1 (stereo unspecified)	i	-0.43	-3.6%
CCn1cc(Br)c(C(=O)Nc2ccc(Cl)cc2Cl)n1	i	.	-0.8%
Cn1c(=O)[nH]c(=O)c2c1nc(N1CCCCCC1)n2CCSc1nc2ccccc2o1	i	1.2	-2.8%
COC(=O)c1sc(S(=O)(=O)N2CCN(c3ccccc3)CC2)c(C(=O)OC)c1C	i	-0.58	-1.7%
CN(C)C(=O)C1OC(C)(C)OC1C(=O)N(C)C (stereo unspecified)	i	.	-0.5%
Cc1cc(NC(=O)COC(=O)c2ccc(S(=O)(=O)N3CCCc4ccccc43)cc2)no1	i	0.31	-5.1%
COc1cccc2cc(-c3nnc(SCC(=O)Nc4nc(C)cs4)n3C)oc12	i	1.4	1.2%
COc1ccc(CCNC(=O)c2cc(-c3ccc(C)cc3O)n[nH]2)cc1OC	i	.	4.4%
Cc1nn(-c2ccccc2C(=O)O)c(=O)c2ccccc12	i	-0.05	-0.9%
CCOC(=O)Cn1c(C(=O)OCC)cc2sccc21	i	-0.44	1.5%
O=C(C1CCCN(S(=O)(=O)c2cccc3nonc23)C1)N1CCN(c2cccc(Cl)c2)CC1 (stereo unspecified)	i	.	-3.3%
CC1CCN(CCNC(=O)CCS(=O)(=O)c2ccc(Br)cc2)CC1	i	1.4	1.2%
Cn1c2ccccc2c(=O)c2c(=O)n(C3CCCCC3)c(-c3cccs3)nc21	i	.	-0.4%
O=C(O)C(c1ccccc1)N1CCCC1 (stereo unspecified)	i	1	-4.3%

New compounds follow
structure	MT1-MMP promoter	WNV NS2B-NS3 inh	Hsc70
O=S(=O)(c1ccccc1)N(CC(O)CN1CCCCC1)c1ccccc1 (stereo unspecified)	i	0.8	4.0%
Cc1ccc(-c2nc(CSCC(=O)N3CCN(c4ccccn4)CC3)c(C)o2)cc1	i	2.2	1.0%
Cc1oc(-c2ccccc2)cc1C(=O)Nc1ccccc1	i	.	3.2%
CCOC(=O)c1ccc(NS(=O)(=O)c2ccc3[nH]c(=O)[nH]c3c2)cc1	i	-0.42	-2.9%
COc1ccc(S(=O)(=O)NCC2CCC(C(=O)NCc3ccco3)CC2)cc1 (stereo unspecified)	i	0.47	-0.5%
CCOC(=O)C(C(=O)Nc1nccs1)C1CCCCC1 (stereo unspecified)	i	-1.2	-2.6%
Nc1nc2nonc2nc1N1CCCCC1	i	-0.14	30%
CCOC(=O)c1c(CN(CC)CC)oc2cc(Br)c(O)cc12	i	1.6	-1.3%
Cc1cccc(N=C2NC(=O)CS2)c1	i	0.4	-4.3%
O=C(CNC(=O)c1ccccc1)NCCc1nc2ccccc2[nH]1	i	0.93	-4.8%
Cc1cc(NC(=O)CN2CCOCC2)n(-c2nc3ccccc3s2)n1	i	.	-7.0%
CC1CCN(S(=O)(=O)c2ccc3ncn(CC(=O)N(C)Cc4ccccc4)c(=O)c3c2)CC1	i	0.89	-2.9%
CCOC(=O)N1CCN(C(=O)CCNS(=O)(=O)c2cc(Br)cnc2N)CC1	i	-0.9	-1.8%
COc1ccc(-c2nnc(SCC(=O)NCCc3ccccc3)o2)cc1	i	.	0.3%
O=C(Nc1ccc(S(=O)(=O)N2CCCCC2)cc1)c1ccccc1Cl	i	.	-0.4%
CCCC(=O)N(C)c1nnc(-c2ccc(OC)cc2)s1	i	-0.12	-2.6%
CC(OC(=O)C1CCN(S(=O)(=O)c2ccccc2)CC1)C(=O)Nc1ncc(Cl)cc1Cl (stereo unspecified)	i	-1.1	0.5%
CCOC(=O)Cc1csc(NC(=O)CCNS(=O)(=O)c2ccc3c(c2)CCC(=O)N3)n1	i	-0.08	-1.2%
CCOC(=O)c1oc2cc(O)cc(C)c2c(=O)c1-c1cscn1	i	-0.58	1.2%
N#CNC1=NCN(Cc2ccccc2)CN1	i	0.0053	0.9%
O=C(CSc1nc(-c2cccs2)cc(C(F)(F)F)n1)NCc1ccccc1	i	.	5.1%
CCCCCc1c(C)nc(SCC(=O)O)[nH]c1=O	i	0.28	5.0%
COc1ccc2cc(CCNC(=O)CC(C)(C)C)c(=O)[nH]c2c1	i	0.55	4.1%
COc1ccc(C(C(=O)NC2CCCCC2)N(CC2CCCO2)C(=O)C2COc3ccccc3O2)cc1OC (stereo unspecified)	i	.	-0.8%
COC(=O)c1ccc(Cn2c(O)c(N=O)c3ccccc32)o1	i	-0.7	15%

Compounds listed so far that contain a cyano group, in the order listed:
structure	MT1-MMP promoter	WNV NS2B-NS3 inh	Hsc70
COc1nc(OCC#N)nc(N(C)C)n1	i	.	0.9%
N#Cc1c(N)nc(SCc2ccccc2)c(C#N)c1-c1ccco1	i	1.1	-23%
CC(C)N(C(=O)C(=O)c1cccn1-c1ccccc1C#N)C(C)C	i	.	1.3%
N#CNC1=NCN(Cc2ccccc2)CN1	i	0.0053	0.9%

(continued)
structure	MT1-MMP promoter	WNV NS2B-NS3 inh	Hsc70
Cc1nc2ccccn2c1/C(O)=C1\C(=O)C(=O)N(CCN2CCOCC2)C1c1ccncc1 (stereo unspecified)	i	-0.3	4.4%
CCC(=O)N/C(N)=N/c1nc(C)c2cc(OC)ccc2n1	i	0.58	1.7%
O=C(CCCCCNS(=O)(=O)c1ccc(Br)cc1)NCCN1CCOCC1	i	-0.52	-5.2%
COc1cccc(NC(=O)Cn2c(=O)oc3ccccc32)c1	i	0.55	-0.5%
CC1(C)CC(CC(=O)O)(c2ccccc2)CCO1 (stereo unspecified)	i	-0.51	-3.6%

Single values from the list.
WNV NS2B-NS3 inh result of `CCC(=O)N/C(N)=N/c1nc(C)c2cc(OC)ccc2n1` → 0.58
WNV NS2B-NS3 inh result of `O=C(CCCCCNS(=O)(=O)c1ccc(Br)cc1)NCCN1CCOCC1` → -0.52
WNV NS2B-NS3 inh result of `Cc1nc2ccccn2c1/C(O)=C1\C(=O)C(=O)N(CCN2CCOCC2)C1c1ccncc1` (stereo unspecified) → -0.3
Hsc70 result of `COc1cccc(NC(=O)Cn2c(=O)oc3ccccc32)c1` → -0.5%
